CSC inhib: blocks cancer stem cells; 300,000 tested, 1.1% active; cancer stem cell-like cells viability, luminescence; inhibition, % at 7.5 µM;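 active = mean at 75% or more and at least half the replicates too; inconclusive = mean and replicates disagree; tested in HMLE shEcad cells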;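 note: 0% = median of negative and 100% = median of positive control wells; the first replicate is given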
Env fusion inh: blocks HIV Env-driven cell-cell fusion | HeLa-JRFL Env/CEM21 cell fusion, luciferase | inhibition, % at 12.3 µM | 360,000 tested, 1.1% active | AID 651610;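 active = mean replicate inhibition score of at least 50 and every replicate individually at or above 50; inconclusive = only one of the two criteria met; inactive = mean below 50 and not all replicates reaching 50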;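 note: 0% = plate neutral controls and 100% = maraviroc near 300 nM; one replicate is shown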
MT1-MMP act inh: MT1-MMP (human) activation inhibition; P50281; HT1080 RFP-PRO-GFP cells, GFP/RFP ratio fluorescence, overnight; percent of plate control window, DMSO zero; GFP/RFP ratio change, % at 20 µM; 360,000 tested, 0.061% active; AID 651647;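 active = GFP/RFP ratio change of at least 30% with cell ATP level not reduced by more than half and red fluorescence within 50% of control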; note: strong numbers were not always called active
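Read-out: GFP/RFP fluorescence ratio; Test system: RFP-PRO-GFP reporter HT1080 cells; Compound dosing: single-point 20 µM compound, 1% DMSO; Times: overnight compound exposure at 37 °C.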
PABP polyA inh: PABP-poly(A) binding inhibition. 290,000 tested, 1% active. PABP-poly(A) RNA binding, fluorescence polarization. AID 2014. inhibition, % at 35 µM;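 active = 50% or more with normal probe brightness, or confirmed in later tests; inconclusive = above 50% with abnormal brightness, or retests that disagree; inactive = below 50% or failed in later tests; about a fifth of its hits are not listed in these tables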;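 note: calls also rest on retests at 20 µM and on dose response follow-up; controls were probe without protein and protein plus probe with vehicle; some compounds called inactive have numbers as strong as hits; many hits fall short of the cut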
Rce1 inh: inhibitors of yeast Ras-converting enzyme. yeast membranes, quenched prenylated peptide cleavage fluorescence. 290,000 tested, 0.27% active. Q03530. calls only. AID 2563;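 active = fall in fluorescence gain of 50% or more versus controls, with final raw signal at or below 3038400; inconclusive = same 50% fall but final raw signal above 3038400; inactive = fall in fluorescence gain under 50%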;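 note: plate controls were neutral control wells for no effect and wells lacking membranes for full effect; tested at 10 µM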
Target sequence (Q03530 whole entry, looked up): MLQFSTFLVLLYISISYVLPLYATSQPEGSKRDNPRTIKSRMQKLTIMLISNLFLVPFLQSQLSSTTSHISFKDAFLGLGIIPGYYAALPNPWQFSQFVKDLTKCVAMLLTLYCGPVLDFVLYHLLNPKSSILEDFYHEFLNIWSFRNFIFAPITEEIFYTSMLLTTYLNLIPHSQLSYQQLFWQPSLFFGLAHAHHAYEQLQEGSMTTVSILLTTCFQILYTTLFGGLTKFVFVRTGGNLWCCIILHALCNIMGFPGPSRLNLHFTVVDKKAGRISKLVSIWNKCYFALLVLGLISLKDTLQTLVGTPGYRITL
UUG fidelity: yeast start codon fidelity modulation. S. cerevisiae UUG-firefly luciferase reporter, luminescence/redox ratio. activity score, % at 18.7 µM. 350,000 tested, 0.13% active. AID 602363;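 active = replicate mean at a twofold rise or more, about +100% in these data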;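 note: firefly luciferase made from a UUG start codon reports start codon fidelity; reporter light over untreated wells divided by growth signal over untreated wells; some hits fall short of that in this replicate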
eIF4H FP inh: inhibitors of RNA binding by human eIF4H. Q15056. eIF4H fluorescence polarization binding assay. inhibition, % at 35 µM. 290,000 tested, 0.94% active;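 active = 50% or more with normal probe brightness, or confirmed in later tests; inconclusive = above 50% with abnormal brightness, or retests that disagree; inactive = below 50% or failed in later tests; about a fifth of its hits are not listed in these tables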;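 note: calls also rest on retests at 20 µM and on dose response follow-up; 0% = protein and probe with vehicle and 100% = probe without protein; strong numbers were not always called active; many hits fall short of the cut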
MT1-MMP act inh RFP: recorded beside MT1-MMP act inh, whose call it bears; RFP signal change, %; measured here: RFP expression control read;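 0 = vehicle wells; hits needed this value within 50% of zero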
* marks the source's active call; other numbers are inactive results; i = inactive; ? = inconclusive; . = not tested or not shown.

SMILES	CSC inhib	Env fusion inh	MT1-MMP act inh	MT1-MMP act inh RFP	PABP polyA inh	Rce1 inh	UUG fidelity	eIF4H FP inh
COc1ccc(OC)c(NC(=O)C2CC(=O)n3ncnc3N2)c1 (stereo unspecified)	5	-10	-5	-4	-16	i	-17	0
CCOC(=O)c1cc(NC(=O)Nc2ccccc2OC)c(C)nc1C	-5	.	9	0	-6	i	-11	-3
CC1=CN2C(=N)/C(=C/c3ccc([N+](=O)[O-])o3)C(=O)N=C2S1	3	-35	6	68	-1	i	.	?
O=C(CCn1cnc2ccccc2c1=O)Nc1nc2c(s1)CCCC2	.	.	0	-4	-6	i	-28	9
COc1ccc(C(=O)CCC(=O)N2CCN(c3cc(C)ccc3C)CC2)cc1	19	2	4	-5	-9	i	3	-21
CN1CCN(C(=O)CC2(CC(=O)O)CCCC2)CC1	-8	9	0	4	0	i	.	8
Cc1ccc(S(=O)(=O)NC2CC(C)(C)NC(C)(C)C2)c(C)c1C	-14	-1	1	4	-13	i	-21	-10
O=C(NC(c1ccccc1)c1ccccc1)c1ccc(S(=O)(=O)C(F)F)cc1	0	.	6	-1	-11	.	-5	-11
Cc1cc2c(cc1C)C(c1cc(Br)ccc1F)CC(=O)N2 (stereo unspecified)	172*	33	-7	-8	-10	i	.	2
CSCCNC(=O)c1ccc(OC2CCN(CCc3ccccc3)CC2)cc1	-5	3	-1	-1	-11	i	.	4
FC(F)(F)c1cnc(Sc2nc3nccc(-c4ccc(Cl)cc4)n3n2)c(Cl)c1	-3	16	-6	-15	3	i	1	-4
C#CCOCCOCCOCCNc1nc(N2CCN(C(=O)[C@H](CCCCN)n3cc(CN)nn3)CC2)nc(N2CCN(C(=O)[C@H](CCCCN)n3cc(CN)nn3)CC2)n1	.	-20	3	7	.	.	59	.
CCOC(=O)N1CCC(N(CCOC)C(=O)Nc2ccc(Cl)cc2)CC1	13	.	3	-1	11	i	2	9
COc1ccc(C2C(C#N)=C(N)N(c3ccccc3C#N)C3=C2C(=O)CCC3)cc1CN1CCCC1 (stereo unspecified)	13	-18	-3	2	-7	i	.	-2
CN1CCCC(OC(=O)c2ccc(C#N)cc2)C1 (stereo unspecified)	-12	12	2	3	-3	i	-18	-13
O=C(CN1C(=O)NC2(CCCC2)C1=O)N1CCN(S(=O)(=O)c2cccc(C(F)(F)F)c2)CC1	27	14	2	6	.	i	14	.
O=C(Nc1ccccc1)Nc1n[nH]c2nnc(-c3ccccc3)c(-c3ccccc3)c12	-9	-116	-1	-7	-8	i	-32	10
CCOc1ccc(C(=O)NCCN(C)C)cc1	-9	.	1	4	-15	i	-2	-10
O=C(NCCO)c1cc2ccccc2c(=O)s1	9	.	3	-2	5	i	-5	-4
CN1C(=O)CSC1=Nc1ccc(Br)cc1	14	6	1	0	-9	i	-14	-3
O=C(NCCc1ccccc1)C(=O)NN=C1CCCC1	-14	-23	1	2	6	i	-7	0
CN(C)c1ccc(C(C(=O)NC(C)(C)C)N(C(=O)c2csnn2)C2CC2)cc1 (stereo unspecified)	6	-65	-10	0	3	i	-14	-6
COc1ccc(NC(=O)CSCC(=O)Nc2cccc3ncccc23)cc1	3	5	-5	0	.	i	-21	.
CCc1ccc(NC(=O)CSCCO)cc1	-13	0	1	5	3	i	-5	-5

A few values from the results shown:
Entry of O=C(CN1C(=O)NC2(CCCC2)C1=O)N1CCN(S(=O)(=O)c2cccc(C(F)(F)F)c2)CC1 in UUG fidelity: 14
Entry of COc1ccc(NC(=O)CSCC(=O)Nc2cccc3ncccc23)cc1 in UUG fidelity: -21
Entry of CN(C)c1ccc(C(C(=O)NC(C)(C)C)N(C(=O)c2csnn2)C2CC2)cc1 (stereo unspecified) in eIF4H FP inh: -6

Remaining list, next part.
SMILES	CSC inhib	Env fusion inh	MT1-MMP act inh	MT1-MMP act inh RFP	PABP polyA inh	Rce1 inh	UUG fidelity	eIF4H FP inh
CCc1nnc(NC(=O)CN2C(=O)/C(=C/c3cc(OC)c(OC)c(OC)c3)SC2=S)s1	-7	12	20	13	-3	i	-20	13
Cc1ccc(/C=N/NS(=O)(=O)c2ccc([N+](=O)[O-])cc2)o1	-16	11	2	2	7	i	-10	-12
O=C(CN1CCN(C(=O)c2ccccc2)CC1)Nc1ncc(Br)cc1Br	.	.	1	2	2	i	-2	-5
CCOc1cc(N2CCOCC2)c(OCC)cc1NC(=O)c1ccc(S(C)(=O)=O)cc1	.	16	-14	-4	-14	i	-15	1
Cn1c(=O)[nH]c(=O)c2c1nc(SCCN1CCOCC1)n2CCCc1ccccc1	.	-18	-3	-1	-6	i	-9	-6
COc1cc(C(O)c2nc(-c3cc4ccccc4o3)cs2)ccc1F (stereo unspecified)	.	17	-8	-21	.	.	-10	.
CN(C(=O)COC(=O)C1CCN(S(=O)(=O)c2ccc3c(c2)OCCO3)CC1)C1CCCCC1	-14	0	4	2	.	i	.	.
COc1ccc(C(=O)NNC(=O)CCc2nc3ccccc3c(=O)[nH]2)cc1	-1	9	-1	1	.	.	1	.
COc1cc(NC(=O)CNc2cccc(S(=O)(=O)N3CCOCC3)c2)cc(OC)c1	.	-4	2	-11	.	.	-12	.
COc1ccc(C2CC(c3ccccc3)=NN2C(=O)CSc2nccc(=O)[nH]2)cc1 (stereo unspecified)	.	.	2	5	1	i	-18	-4
CCc1ccc(C(=O)NC(C(=O)O)C(C)C)cc1 (stereo unspecified)	4	-15	-2	5	-6	i	4	-2
CCOC(=O)CSc1nc2ccccc2c(=O)n1C	-4	.	4	3	-4	i	-11	6
CC(C)OC(=O)CN1C(=O)c2ccccc2C1=O	0	.	4	3	9	i	-3	-5
CC(=O)N(CCN(C)C)c1nc2cc3c(cc2s1)OCCO3	-15	-3	5	3	-6	i	-3	-19
CCOC(=O)N1CCN(CC(O)COc2cc(C)ccc2C(C)C)CC1 (stereo unspecified)	-14	8	0	3	-13	i	.	-5
CCC1Nc2ncnc(N3CCN(c4ccccc4)CC3)c2N(Cc2ccc(Cl)cc2)C1=O (stereo unspecified)	25	-16	-3	-1	.	i	-13	.
CCOc1ccccc1N1CCN(C(=O)NCc2ccc(C)cc2)CC1	12	8	2	0	13	i	-1	-1
O=C(CSc1nc2ccccc2c(=O)n1-c1ccccc1)N1CCC1	-15	15	2	1	7	i	.	-2
CSc1nc(-c2ccco2)nn1C(=O)c1ccc(C)cc1	7	3	0	0	-6	i	-3	3
CN1/C(=C\C(=O)COC(=O)c2ccccc2O)C(C)(C)c2ccccc21	-3	-2	6	3	-1	i	7	14
COc1cc(C)c(S(=O)(=O)Nc2ccccc2F)cc1C	10	.	1	2	0	i	-7	0
Cc1ccc(CC(=O)N2CC(C)OC(C)C2)cc1 (stereo unspecified)	-17	7	0	0	-10	i	-21	-6
N#Cc1c(N)c(C(=O)c2ccccc2)n2c1CCCC2	-1	.	-6	-2	2	i	-11	5
CC(=O)C1C(c2ccc(C)cc2)c2c(n[nH]c2C)CC1(C)O (stereo unspecified)	-6	-12	-7	-1	-3	i	-14	-7
COc1cccc(CNC(=O)CCNC(=O)c2ccccc2OC)c1	-9	-40	-2	0	-9	i	-12	-5
CCN(Cc1ccccc1)C(=O)Cn1c(=O)n(CC(=O)N2CCCCC2)c(=O)c2sccc21	-2	0	2	7	11	i	-10	1
CCN(CC)C(=O)[C@H]1C[C@H](CC(=O)NCCc2ccccn2)C(=O)N2CCc3c([nH]c4ccc(Cl)cc34)[C@]12C	.	-20	4	7	.	.	-2	.
O=C(OCn1nnc2ccccc2c1=O)c1cc2ccccc2o1	10	4	5	4	6	i	8	-7
O=C(Nc1ccc(OC(F)(F)F)cc1)C1CC(c2ccc(F)cc2)=NO1 (stereo unspecified)	1	6	-2	0	26	.	.	-10
CCc1cccc(C)c1NC(=O)CN1CCN(S(=O)(=O)c2ccc(C(C)(C)C)cc2)CC1	4	0	0	-1	.	i	.	.
COc1cc2ccccc2cc1C(=O)N(CCN(C)C)c1nc2ccc(Br)cc2s1	47	9	-5	-2	6	i	1	2
C/C(=N\NC(=O)CNc1ccccc1Cl)C(C)(C)C	3	-48	-2	1	5	i	-10	-3
CC1CC(C)CN(C(=O)c2nn(C)c3c2CS(=O)(=O)c2ccccc2-3)C1 (stereo unspecified)	-8	4	1	2	4	i	-11	-6
O=C1C2C3CCC(C3)C2C(=O)N1c1ccc(OS(=O)(=O)c2ccccc2)cc1 (stereo unspecified)	38	-34	-1	-13	11	i	.	1
COCCNC(=O)COCc1cc(-c2ccc3c(c2)OCO3)on1	3	-19	2	3	4	i	-14	2
O=C(N=C1N=C2C=CC(Br)=CN2Cc2ccccc21)c1ccc([N+](=O)[O-])cc1[N+](=O)[O-]	0	-34	-4	-7	3	i	.	-5
COc1cccc(CNC(=O)CCC2CCCN(C(=O)c3cc(C)[nH]n3)C2)c1 (stereo unspecified)	-13	21	-3	5	6	.	-1	-4
Cc1cc(C)nc(Nc2n[nH]c(-c3ccccc3C)n2)n1	-16	-23	3	4	14	i	.	0
O=C(Oc1ccc(C(=S)N2CCOCC2)cc1)c1cc([N+](=O)[O-])cc([N+](=O)[O-])c1	-9	5	0	1	6	i	-13	-7
O=C(CSc1cccc[n+]1[O-])NCCCc1ccccc1	-7	7	-3	-4	-2	i	.	10
COc1ccc(-c2cc(NC=O)c3ncc(-c4ccc(OC)c(OC)c4)n3c2)cc1	.	-211	-25	-2	.	.	-17	.
N/C(Cc1ccc([N+](=O)[O-])cc1)=N\OC(=O)c1ccco1	-6	-11	-2	-1	5	i	.	-5
COc1cccc(NC(=O)Nc2nnc(Cc3ccc(OC)c(OC)c3)s2)c1	2	15	5	-5	-7	i	-15	-6
CCOC(=O)C1(Cc2ccc(Cl)cc2)CCN(C(=O)C2=NNC(=O)CC2)CC1	-33	-6	-5	-4	0	i	3	2
O=c1[nH]cc(I)cc1I	.	-16	6	3	34	i	-19	2
Cc1c(NS(=O)(=O)c2cccc(C(=O)O)c2)c(=O)n(-c2ccccc2)n1C	-5	5	-2	2	.	i	-17	.
CCC(C)NC(=O)C1(C)CCC(=O)N1CCc1ccc(OC)c(OC)c1 (stereo unspecified)	-7	2	6	3	3	i	-9	2
O=C(CNCc1ccc(F)cc1)Nc1cc(S(=O)(=O)N2CCOCC2)ccc1Cl	-11	.	1	-6	.	.	-3	.
CC(=O)Nc1cc(-c2ccc(CO)cc2)cn2c(-c3ccc(F)cc3)cnc12	.	7	-9	2	.	.	-16	.
Cc1cccc(C)c1OC(=O)CSc1nnc(-c2ccccc2O)o1	.	-17	.	.	-8	.	-13	-6
CCCNC(=O)c1cc(C2CCCN(C(=O)C3CCCCC3)C2)on1 (stereo unspecified)	.	-3	0	1	.	.	-14	.
C=CCC1CCC/C(=N\NS(=O)(=O)c2ccc(C)cc2)C1 (stereo unspecified)	4	-1	-4	2	1	.	-15	-4
Cc1ccc(S(=O)(=O)NCCCCCC(=O)Nc2ccccn2)cc1	-12	13	3	-3	0	i	-11	-11
CCc1c(C)nc(N2CCN(Cc3ccccc3)CC2)[nH]c1=O	-14	.	-3	-4	-4	i	-29	-10
O=C(CCSCCc1ccccn1)Nc1ccc(Cc2ccncc2)cc1	0	4	-3	0	-11	i	-20	-6
O=S(=O)(NC1CCCC1)c1ccc(S(=O)(=O)N2CCCN(Cc3ccccc3)C2)cc1	19	.	-8	-4	3	i	.	-2
COc1ccc(S(=O)(=O)NCCc2cn3cccc(C)c3n2)cc1OC	-17	-4	5	3	-10	i	1	-6
CCCOc1ccc(-c2nc(C#N)c(N3CCN(C)CC3)o2)cc1	-8	.	-1	1	-4	i	-9	-7

Screening data as filed in PubChem.
